D2 ag: human D2 receptor agonism in beta-arrestin assay | activation, % (no concentration beside the values) | P14416 | DiscoveRx PathHunter D2 beta-arrestin, luminescence, 90 min; 100% = 57 uM dopamine signal | actives 0.084% (n = 360,000); in the data active = activation above about 40%; inconclusive = about 15% to 40%; inactive = below about 15%; note: compound concentration not given in the record; the text of the record calls up to 30% inactive
Target sequence (P14416 whole entry, looked up): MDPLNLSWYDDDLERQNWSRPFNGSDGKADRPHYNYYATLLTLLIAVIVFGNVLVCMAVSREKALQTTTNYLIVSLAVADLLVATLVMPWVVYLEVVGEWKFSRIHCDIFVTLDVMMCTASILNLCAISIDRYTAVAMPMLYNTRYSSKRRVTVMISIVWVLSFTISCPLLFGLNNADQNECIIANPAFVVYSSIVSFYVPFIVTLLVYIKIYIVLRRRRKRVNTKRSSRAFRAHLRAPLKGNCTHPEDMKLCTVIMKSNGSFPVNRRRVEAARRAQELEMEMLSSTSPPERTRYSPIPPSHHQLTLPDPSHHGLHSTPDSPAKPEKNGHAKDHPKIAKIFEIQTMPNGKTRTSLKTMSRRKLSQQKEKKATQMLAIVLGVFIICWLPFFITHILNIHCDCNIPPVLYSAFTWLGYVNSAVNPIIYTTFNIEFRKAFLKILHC
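Agonist mode: compounds alone added to overnight-plated D2 PathHunter cells for 90 min at 37 C, with 57 uM final dopamine (EC100) defining full response. Beta-arrestin recruitment detected by chemiluminescent reagent, read after 1 h at ambient temperature.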
D2 potentiator: potentiates the human D2 dopamine receptor allosterically; potentiation, % (no concentration beside the values); P14416; DiscoveRx D2 beta-arrestin cells, luminescence, 90 min; 100% = 57 uM dopamine signal; actives 0.23% (n = 360,000); active = potentiation of 50% or more; inconclusive = 30% to 50%; inactive = 30% or less;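 note: compound concentration not given in the record; tested on top of an EC20 dose of dopamine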
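PathHunter beta-arrestin assay in DiscoveRx D2 cells. Compounds were added with an EC20 of dopamine (50 nM final) for 90 min at 37 deg C. Luminescence was read 1 h after detection reagent, with 57 uM dopamine as the EC100 control.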
gsp agonist: activates gsp, the McCune-Albright syndrome mutation; AID 624287; actives 0.13% (n = 340,000); Potency, µM (top dose mostly 76.9 µM), for inactives: at the highest dose activation (cAMP increase), hits mostly activators; gsp mutant cells, cAMP HTRF, 30 min; control for the full effect not named in the record; active = well fitted activation curve with a large enough effect; inconclusive = small, poorly fitted or top-dose-only effect, or another doubt; inactive = no such curve, though single readings can be large or run the other way; cell line not stated here;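 note: phosphodiesterase inhibitor Ro 20-1724 added with compounds to block cAMP breakdown; potency is the fitted concentration of half-maximal effect; nearly all actives have a fitted effect of over 60% in size; about a fifth of the inactives were tested at one dose only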
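Cells stably selected in G418 were plated at 2000/well, grown 16-24 hr, then given compounds in DMSO with the PDE inhibitor […] (300 uM solution added) for 30 min at 37C; cAMP was read by HTRF.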
Six1-Eya2 inh: blocks human Six1 binding to Eya2 | activity change, % (concentration not given with the values) | Q15475+O00167 | AlphaScreen GST-Six1/His-Eya2 binding, biochemical; active compounds read low; control for the full effect not named in the record | actives 0.56% (n = 360,000); in the data active = activity change below about -65%; inconclusive = about -30% to -65%; inactive = above about -30%; note: % is set by controls: 0 for no effect and ±100 for the full control effect
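Six1/Eya2 binding was read as AlphaScreen signal after compounds were pinned into GST-Six1 plus His-tagged Eya2 (5X stock 250/500 nM) in pH 8.0 Tris/NaCl/TCEP buffer, beads added, then incubated 1 h, 37 C, dark.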
CtBP-E1A blk: CtBP/E1A binding inhibition; activity change, % (no concentration beside the values); AID 651724; actives 0.49% (n = 340,000); AlphaScreen GST-E1A/His-CtBP binding, 1536-well; active compounds read low; control for the full effect not named in the record; in the data active means activity change below about -65%; inconclusive means about -30% to -65%; inactive means above about -30%; note: % is set by controls: 0 for no effect and ±100 for the full control effect
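Protein mix (5X: 125 nM each GST-E1A, His-CtBP) was incubated with pinned compound 2 h at 37 deg C in dark, in 50 mM Tris pH 8.0 buffer with 300 mM NaCl. Glutathione donor and nickel acceptor beads followed; AlphaScreen signal read after 1 h.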
gsp antag: antagonizes gsp, the McCune-Albright syndrome mutation; gsp-mutant cells, cAMP HTRF, 30 min; control for the full effect not named in the record; Potency, µM (titrated, usually from 76.9 µM), for inactives: at the highest dose activity change, negative = inhibition, usual class: inhibitors; AID 624288; actives 0.4% (n = 340,000); active = falling curve of any shape with a large fitted effect; inconclusive = falling curve, mostly with a smaller effect; inactive = flat or rising curve; cell line not stated here;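 note: intracellular cAMP measured with PDE inhibitor Ro 20-1724 present during compound exposure; potency is the fitted concentration of half-maximal effect; % is set by controls: 0 for no effect and ±100 for the full control effect; nearly all actives have a fitted effect of over 65% in size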
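Measurement of cellular cAMP by homogeneous time-resolved fluorescence following a 30 min compound exposure at 37C. The PDE inhibitor […] was present throughout; the assay buffer was DPBS with 0.05% BSA and 0.005% Tween 20.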
The depositor's hits bear a star; ? = inconclusive; · = no result given; [ ] = remark or other dose.

SMILES	D2 ag	D2 potentiator	gsp agonist	Six1-Eya2 inh	CtBP-E1A blk	gsp antag
Cc1cc(NCCN2CCOCC2)n2nc(C)c(-c3ccc(Cl)cc3)c2n1	-0.6	-17	12%	-3	-4	-6%
COc1ccc(CN2CCN(C(=O)c3cccc4ccccc34)CC2)cc1OC	-3.5	-3	10%	-2	-9	1%
Cc1ccc([C@@H]2CC=C(C(=O)O)[C@H](c3ccccc3)N2S(=O)(=O)c2ccc(C)cc2)cc1	0.4	-10	-4%	-2	·	-7%
Cc1c(NC(=O)C(C)NCC2CCCO2)c(=O)n(-c2ccccc2)n1C (stereo not given)	-2.8	-6	-1%	-2	1	9%
O=[N+]([O-])c1ccc2nc(-c3cccnc3)[nH]c2c1	2.5	18	-1%[15.4 µM]	0	-2	-4%
O=C(CS(=O)(=O)Cc1ccccc1)c1ccccc1	-7.8	-2	-11%	6	5	·
O=C(NCc1ccc2c(c1)OCO2)C1CCN(S(=O)(=O)c2ccc(Br)s2)CC1	-0.2	8	1%	4	-3	?
C[C@@H]1NC(=O)[C@H](CC(N)=O)NC(=O)c2cc([N+](=O)[O-])cc(I)c2OCC[C@@H](C(=O)NC(CC(=O)O)C(N)=O)NC1=O (stereo not given in full)	-0.7	-7	·	3	0	8%
COc1ccc(NC(=O)COC(=O)c2ccc(OCc3c(C)noc3C)cc2)cc1OC	-1.1	15	1%	-7	-2	-21%
COc1ccccc1N(CC(=O)N1CCCCC1)S(=O)(=O)c1ccccc1	-1.9	-9	?	10	8	0%
COCCOC(=O)c1[nH]c2c(c1C)C(=O)C(C(=O)OC)C(C)C2 (stereo not given)	-2.4	-1	-18%	4	2	?
CN(CC(=O)Nc1ccc(Cl)c(C(F)(F)F)c1)C(=O)c1cc(=O)[nH]c2ccccc12	-4.4	-24	-30%[inhibitor]	-3	7	10%
CC1(C(=O)NS(=O)(=O)c2cccc(Cl)c2)CCN1C(=O)Cc1ccc(-c2ccccc2)cc1 (stereo not given)	-3.7	-1	·	-5	-7	·
Cc1ccccc1NC(=S)C1=C(O)c2sccc2N(C)S1(=O)=O	-2.7	-9	2%	-1	5	-15%
Cc1cc(C)cc(OCC(=O)Nc2ccc3c(c2)OCO3)c1	4.8	-5	-68%[inhibitor]	-6	4	-15%
COc1cc(C(=O)NCCC(=O)NC2CCCCCCC2)cc(OC)c1OC	2.0	-11	-27%	0	1	?
CC1CCN(c2ccccc2NC(=O)c2ccc(N3CCOCC3)c([N+](=O)[O-])c2)CC1	-1.8	-19	-25%	3	7	6%
O=C(c1ccc(Cl)cc1)c1c[nH]c(C(=O)NNc2cccc(Cl)n2)c1	2.0	-2	-34%[inhibitor]	7	-9	-4%
CNC(=S)NNC(=O)COc1cccc(C)c1C	0.8	-25	5%	-2	5	0%
O=C(CCc1ccc(Oc2cc([N+](=O)[O-])cc([N+](=O)[O-])c2)cc1)Nc1cccc(Cl)c1	?	64*	-1%	-24	-23	-5%

Retrieved one by one from above, 3 records:
SMILES	D2 ag	D2 potentiator	gsp agonist	Six1-Eya2 inh	CtBP-E1A blk	gsp antag
COc1ccc(NC(=O)COC(=O)c2ccc(OCc3c(C)noc3C)cc2)cc1OC	-1.1	15	1%	-7	-2	-21%
CN(CC(=O)Nc1ccc(Cl)c(C(F)(F)F)c1)C(=O)c1cc(=O)[nH]c2ccccc12	-4.4	-24	-30%[inhibitor]	-3	7	10%
Cc1ccc([C@@H]2CC=C(C(=O)O)[C@H](c3ccccc3)N2S(=O)(=O)c2ccc(C)cc2)cc1	0.4	-10	-4%	-2	·	-7%

Continued:
SMILES	D2 ag	D2 potentiator	gsp agonist	Six1-Eya2 inh	CtBP-E1A blk	gsp antag
CC(C(=O)NCC1(c2ccccc2)CCCC1)N1CCCC1 (stereo not given)	-2.1	-7	-9%	-2	0	7%
CC(C)c1nnc(NC(=O)c2cc3ccccc3o2)s1	-4.0	-1	21%	42	-7	1%
C[C@H](CO)N1C[C@H](C)[C@@H](CN(C)S(=O)(=O)c2ccc(F)cc2)Oc2ccc(NS(=O)(=O)c3cccs3)cc2C1=O	-3.6	-6	·	0	-22	-6%
Cc1cc(C)c(S(=O)(=O)N(C)CC(N)=O)c(C)c1	1.2	5	?	7	5	0%
O=C1c2oc3ccccc3c(=O)c2C(c2ccc(O)cc2)N1c1nccs1 (stereo not given)	-3.6	-2	-50%[inhibitor]	-2	·	-3%
COc1ccc(OC2C(=O)N(Cc3ccc4c(c3)OCO4)C2c2sccc2C)cc1 (stereo not given)	-1.2	-2	-14%	-11	-4	?
CCCN(CCO)Cc1cccc(Br)c1	-2.1	-6	-12%	1	6	-5%
NC(=O)c1sc2nc(-c3cccs3)ccc2c1N	-5.9	-5	?	-12	-18	5%
COCCNC(=O)CC(=O)N/N=C/c1cccc(C(=O)OC)c1	-5.2	-7	-5%[15.4 µM]	0	1	-6%
CCOC(=O)NC1(C(F)(F)F)NC(=O)N(Cc2ccco2)C1=O (stereo not given)	-0.4	-10	3%	3	11	-2%
CCCS(=O)(=O)NC(=O)C1(C)CCN(C(=O)c2cc(F)ccc2C)C1 (stereo not given)	-5.4	-5	·	1	-2	·
CN(c1ccc(C(=O)NCCCn2ccnc2)cc1)S(C)(=O)=O	-1.7	-3	-5%	1	7	-23%
COc1cc(OC)cc(-c2c(-c3cccs3)c3cc(-c4ccc(OC)nc4)ccc3n2C)c1	-2.4	-2	0%	-5	-1	1%
COC(=O)NNC(=O)COc1ccc(Cl)cc1	0.5	-3	-13%	7	8	7%
CCOc1ccccc1N1CC(C(=O)Nc2ccccc2CC)CC1=O (stereo not given)	4.7	-1	11%	-7	-10	-3%
Nc1ccc2nc(-c3cccc(-c4nc5ccc(N)cc5[nH]4)c3)[nH]c2c1	-5.4	2	2%[15.4 µM]	12	-6	-3%
CC1(C)CC[C@]2(C(=O)n3ccnc3)CC[C@]3(C)[C@H](C(=O)C=C4[C@@]5(C)C=C(C#N)C(=O)C(C)(C)[C@@H]5CC[C@]43C)[C@@H]2C1	1.7	-11	-22%	-22	-21	-8%
Cc1ccc(NS(=O)(=O)c2ccc(Cl)c(C(=O)O)c2)cc1S(=O)(=O)N1CCOCC1	-3.8	-4	3%	0	-7	1%
Cc1cc(=O)oc2c(C)c(OC(C)C(=O)NCCN3CCOCC3)ccc12 (stereo not given)	2.5	-6	-1%	-4	1	-8%
O=C(COC(=O)CNC(=O)C12CC3CC(CC(C3)C1)C2)NC1CCS(=O)(=O)C1 (stereo not given)	4.4	0	-3%[15.4 µM]	12	-3	7%

A different layout for two compounds above.
Results follow in this order: D2 ag | D2 potentiator | gsp agonist | Six1-Eya2 inh | CtBP-E1A blk | gsp antag
CCOc1ccccc1N1CC(C(=O)Nc2ccccc2CC)CC1=O (stereo not given)
→ 4.7 | -1 | 11% | -7 | -10 | -3%
Nc1ccc2nc(-c3cccc(-c4nc5ccc(N)cc5[nH]4)c3)[nH]c2c1
→ -5.4 | 2 | 2%[15.4 µM] | 12 | -6 | -3%

Continued:
SMILES	D2 ag	D2 potentiator	gsp agonist	Six1-Eya2 inh	CtBP-E1A blk	gsp antag
CC1CCN(Cc2c(C(=O)N/N=C/c3cc(Cl)ccc3O)nnn2-c2nonc2N)CC1	-9.1	1	8%[15.4 µM]	13	-2	-1%
CCC(C)NC(=O)c1ccccc1NC(=O)COc1ccc(OC)cc1 (stereo not given)	-0.5	-4	-1%[15.4 µM]	-7	-1	8%
NC(=O)c1ccc(-c2nnn(CC(=O)N(C3CCCCC3)C3CCS(=O)(=O)C3)n2)cc1 (stereo not given)	-4.5	-19	-20%	18	0	11%
O=C(c1ccc([N+](=O)[O-])cc1)N(Cc1ccccc1)c1ccccn1	-0.4	-6	?	-1	-4	-13%
Cc1noc(C)c1NC(=O)N(C)C[C@@H]1Oc2ncc(Br)cc2C(=O)N([C@H](C)CO)C[C@@H]1C	-2.6	0	-47%[inhibitor]	-1	3	·
Cc1cc(C(C2C(=O)CC(C)(C)CC2=O)C2C(=O)CC(C)(C)CC2=O)cc(C)c1OC(F)F	-3.8	-9	0%	7	2	-15%
CC(C)OC(=O)/C(C#N)=C/c1ccc(-c2ccc(SC(F)F)cc2)o1	-1.5	-1	-3%	0	0	32%[activator]
c1ccc2c(c1)CCCC2NC1=NCCC1 (stereo not given)	-1.6	-6	18%	9	-1	7%
C=C(C)Cn1c(-c2ccc(OC)cc2)nc2ccccc21	-0.4	-13	4%	7	0	-3%
CN(C)S(=O)(=O)c1ccc(C(=O)OCC(=O)Nc2ccc(OC(F)F)cc2)cc1	-8.3	-3	12%	3	3	-5%
CCOC(=O)C(Cc1cc(C(C)=O)ccc1OC(C)C)C(=O)OCC	0.3	-17	-39%[inhibitor]	22	-1	-1%
CCn1c2ccccc2c2cc(N)ccc21	-1.7	-9	0%	-14	-16	3%
O=C(O)/C=C\C(=O)Nc1ccc(Oc2ccc(Br)cc2)cc1	0.1	0	-3%	-2	-1	1%
CCOC(=O)N1CCC(NS(=O)(=O)c2cc3c(cc2Cl)NC(=O)CO3)CC1	-2.1	-12	-5%	0	8	5%
Cc1ccc(-n2c(SCC(=O)NCCN3C(=O)CSC3=O)nnc2-c2ccccc2)cc1C	-0.5	-15	-27%	-9	-4	-24%
O=C(NCCSCc1ccccc1)c1ccc(Cl)c(S(=O)(=O)N2CCOCC2)c1	-4.2	-18	1%	18	24	-25%
CC1(c2nnc(-c3ccc(Cl)cc3)o2)CC(c2cccnc2)=NO1 (stereo not given)	-1.4	-2	·	4	7	9%
Cc1ccc(SC[C@H](Cc2ccccc2)N2CCN(CC(C)C)CCC2=O)cc1	2.9	0	·	10	9	-4%
COC(=O)c1[nH]nc(C(=O)OC(C)(C)C)c1-c1ccccc1	-0.8	0	-75%[inhibitor]	-9	9	-26%
CC(=O)c1sc(NC(=O)CCS(=O)(=O)c2ccccc2)nc1C	0.2	-34	44%	-20	-30	10%
CC(=O)N(/N=C1\Sc2ccccc2C1=O)c1ccccc1C	-12	-42	4%	?	?	-16%
Cc1ccc(SC[C@H](C)CN2CC[C@H](NC(=O)OCc3ccccc3)CCC2=O)cc1	1.7	-2	-19%	5	·	-1%
Cc1ccc(C(=O)OCC(=O)NCc2ccccc2)cc1S(=O)(=O)N1CCCCC1	-7.8	3	-55%[inhibitor]	-4	0	-3%
COc1cccc(C(=O)/C=C/Nc2ccc(S(=O)(=O)Nc3ccc(C(C)=O)cc3)cc2)c1	-0.2	-13	-1%	-24	?	-21%
CC(OC(=O)Cn1cc(C(F)(F)F)ccc1=O)C(=O)N(C)c1ccccc1 (stereo not given)	-0.2	-34	-6%[15.4 µM]	-2	6	4%
N=C1c2ccccc2CN1c1ccc(S(=O)(=O)N2CCCCC2)cc1	-6.0	-14	9%[15.4 µM]	2	3	-2%
CN1C(=O)C(C)(C)c2cc(S(=O)(=O)N3CCN(c4ccccc4)CC3)ccc21	-2.1	-6	?	0	2	-3%
O=C(COc1ncnc2c(Cl)cc(Cl)cc12)Nc1cc([N+](=O)[O-])ccc1Cl	0.2	-13	9%	2	3	1%

Source: PubChem (National Center for Advancing Translational Sciences (NCATS))
